2A Renilla: lowers the Renilla signal of an FMDV 2A StopGo reporter. Potency, µM (top dose mostly 57.5 µM), without a hit: top-dose signal change, negative = less light. 120,000 tested, 0.32% active. HEK cells with a luciferase reporter of 2A StopGo recoding; active means well fitted falling curve with a large enough effect; inconclusive means small, poorly fitted or top-dose-only effect; inactive means no such curve, though single readings can be large or run the other way; also: nearly all actives have a fitted effect of over 55% in size; overnight with compound
StopGo FLuc: lowers the firefly signal of an FMDV 2A StopGo reporter | HEK cells with a luciferase reporter of 2A StopGo recoding | Potency, µM (titrated, usually from 57.5 µM), for the others: at the highest dose signal change, negative = less light | 120,000 tested, 0.23% active; active = well fitted falling curve with a large enough effect; inconclusive = small, poorly fitted or top-dose-only effect; inactive = no such curve, though single readings can be large or run the other way; also: nearly all actives have a fitted effect of over 60% in size; overnight with compound
Numbers without * were called inactive; ? = inconclusive; [ ] = dose if it differs, or a comment. % is scaled to controls: 0 for no effect and ±100 for the full control effect; potency is read from the fitted curve at half-maximal effect. These rows are one share of the data; count on the stated rates, not on these rows.

Molecule,StopGo FLuc,2A Renilla
CCN(CCO)CCn1c(Cc2ccccc2)nc2c1c(=O)n(C)c(=O)n2C,-14%,-10%
CN1CCc2c(c(N3CCOCC3)nc3sc(C(=O)Nc4ccccc4)c(N)c23)C1,177%[activator],-3%
Cc1c(CC(=O)O)c(=O)oc2c(C)c(OCc3nn[nH]n3)ccc12,-10%,-18%
CN1C(=O)Cc2cc(S(=O)(=O)NCc3ccccc3Cl)ccc21,-20%,88%[activator]
Cc1ccccc1OCC(=O)Nc1c(N2CCCC2)c2ccccc2oc1=O,13%,0%
CCOC(=O)c1c(S(=O)(=O)N2CCC(C(=O)Nc3ccc(OCC)cc3)CC2)c(C)n(C)c1C,-9%,-10%
CC(=O)c1ccc(NC(=O)CSC2=C(C#N)C(c3ccccc3C)C3=C(CCCC3=O)N2)cc1 (stereo not given),-18%,-23%
Cc1occc1C(=O)NC(C)c1ccccc1Br (stereo not given),9%,9%
O=C(CN1CCN(Cc2ccc(Cl)cc2)C1=O)NCc1ccc(F)cc1,-22%,-7%
CC(C)c1ccc(NC(=O)c2cccn2-c2nnc(N3CCCCC3)s2)cc1,9%,-13%
COc1ccc(OC)c(Nc2c3c(nc4ccccc24)CCC3)c1,-25%,-1%
CN(C)c1ccc(C(CNS(=O)(=O)c2ccc(Br)cc2)N2CCCC2)cc1 (stereo not given),2%,4%
COc1ccc(C2=NS(=O)(=O)N(C)C(C(=O)Nc3cccc(O)c3)=C2)cc1OC,?,?
CC(CC(C#N)(c1ccccc1)c1ccccc1)N(C)C (stereo not given),3%[22.9 µM],-10%[114 µM]
O=C(Nc1ccc(C2CC2)cc1)c1cccs1,162%[activator],13%
COC(=O)C1CN(Cc2cn(CCC3OCCO3)nn2)CCS(=O)(=O)N1Cc1ccccc1 (stereo not given),2%,4%
O=C(OCc1nc2ccccc2s1)C1=NN(C2CCS(=O)(=O)C2)C(=O)CC1 (stereo not given),162%[activator],47%[activator]
COc1ccc(-c2coc3cc(OCC(=O)N4CCC(=O)CC4)ccc3c2=O)cc1,-20%,?
CC(C)c1cc(C(=O)Nc2ccc(Cl)cc2)nn1C1CCS(=O)(=O)C1 (stereo not given),-6%,23%
Cc1ccc(Nc2nc(-c3cccc([N+](=O)[O-])c3)cs2)cc1C,149%[activator],-16%
CC(C)(C)C(=O)Nc1ccc(-c2nc3ccccc3s2)cc1,-99%,7%
CCOc1ccc(NC(=O)c2c(NCc3cccs3)sc3c2CCC(C)C3)cc1 (stereo not given),-13%,?
CC(CC(=O)Nc1ccc(F)cc1Cl)n1cccn1 (stereo not given),0%,-3%
O=C(CCc1ncc(-c2ccccc2Cl)o1)NCc1ccccc1,49%[activator],29%
CC(=O)NCc1cc(C)cc2c(C)c(C)[nH]c12,-1%,2%
COc1ccc(/C=C/C(=O)c2cc(C)ccc2OC(=O)c2cccs2)cc1OC,3%,?
Cc1c2cnn(-c3ccccc3)c(=O)c2c(C)n1CC(=O)Nc1ccccc1Br,-10%,-11%
COc1cc(OC)c(NC(=O)COCc2cc(-c3cccs3)on2)cc1Cl,0%,-1%
Cc1ccc(S(=O)(=O)NC(c2ccccc2)c2ccccn2)s1 (stereo not given),-2%,80%[activator]
CCC1CCCCN1C(=O)Cn1c(=O)n(-c2ccc(Cl)c(Cl)c2)c(=O)c2c(C)c(C(=O)N(C)C)sc21 (stereo not given),-23%,11%
Cc1ccccc1NS(=O)(=O)c1ccc2c(c1)-c1oncc1CO2,4%,0%
COc1ccc2cc(C(=O)NC3CCS(=O)(=O)C3)[nH]c2c1 (stereo not given),44%[activator],-1%
Cc1c(C#N)c(NC(=O)CN2CCN(CC(=O)N3CCCC3)CC2)n(C2CCCCC2)c1C,0%,-9%
Cc1nn(C)c2sc(C(=O)N3CCN(S(=O)(=O)c4cc(F)ccc4F)CC3)cc12,0%,14%
Cc1nn(-c2ccccc2)c(OC(=O)c2ccc(Cl)cc2)c1S(=O)(=O)c1ccccc1,-6%,9%
O=C(CSc1nc2ccc(N=Cc3c4ccccc4cc4ccccc34)cc2s1)NCCc1ccccc1,90%[activator],41%[activator]
COC(=O)C1CN(Cc2ccc(Cl)cc2)CCS(=O)(=O)N1Cc1cn(Cc2ccccc2)nn1 (stereo not given),9%,17%
Cc1ccc(NC(=O)CSCc2cnn(-c3ccccc3)c2-n2cccc2)c(C)c1,-5%,0%
O=C(NCc1ccccc1Cn1cccn1)c1cn[nH]c1-c1ccc(F)cc1,-13%,-14%
COC(=O)CCC1(C)C(=C(C)C)CCC(C)C1COc1ccc2ccc(=O)oc2c1 (stereo not given),-3%,?
Cc1cccc(OCc2nn3c(-c4ccncc4)nnc3s2)c1,-2%,-7%
COC(=O)c1c(NC(=O)C2c3ccccc3Oc3ccccc32)sc2c1CCC(C)C2 (stereo not given),21%,16%
O=C(Oc1ccc(Sc2ccc(OC(=O)C3CC3)cc2)cc1)C1CC1,45%[activator],19%
Cn1nc(C(=O)OCC(=O)NCc2ccco2)c2ccccc2c1=O,-9%,-17%
C=CCN(Cc1ccccc1F)C(=O)Cc1nn(C)c(=O)c2ccccc12,-11%,-9%
Cc1nc2cc(-c3cccc(F)c3)nn2c(C)c1CCC(=O)Nc1ccccc1C(N)=O,-39%,-10%
Cc1ccc(-n2c(=O)c3c(cnn3C)n(CC(=O)Nc3c(C)cccc3C)c2=O)cc1,-7%,-11%
CCOC(=O)c1cnc2ccccc2c1N(C)CC(=O)N(C)C,9%,-3%
CCOc1ccc(C(C)NC(=O)c2snnc2CC)cc1OCC (stereo not given),18%,-1%
COc1ccc(-c2[nH]ncc2C(=O)NCc2ccccc2C)cc1,24%,1%

The last 2 compounds of the part before are carried over, then new ones follow.
Molecule,StopGo FLuc,2A Renilla
CCOc1ccc(C(C)NC(=O)c2snnc2CC)cc1OCC (stereo not given),18%,-1%
COc1ccc(-c2[nH]ncc2C(=O)NCc2ccccc2C)cc1,24%,1%
CCOc1ccc(CCNc2nc3ccccc3n3c(C)nnc23)cc1OCC,32%[activator],-15%
CCCCc1ccc(-n2nc3cc(C)c(NC(=O)Cc4ccccc4)cc3n2)cc1,-6%,2%
Cc1ccc(NC(=O)CCCN2C(=O)COc3ccc(C)cc32)c(C)c1,0%,7%
Cc1cccc(-n2ncc(C(=O)N3CCc4ccccc4C3)c2-n2cccc2)c1,-28%,-10%
CC(C)CCn1c(N2CCN(Cc3ccccc3Cl)CC2)nc2c1c(=O)[nH]c(=O)n2C,-12%,-13%
Fc1ccc(-c2csc(NCc3ccco3)n2)cc1F,231%[activator],16%
CC(CCO)Nc1nc2c(c(=O)n(C)c(=O)n2C)n1Cc1ccc(Cl)c(Cl)c1 (stereo not given),-5%,5%
C=CCc1ccccc1OCCSc1nc(-c2cccs2)nc2cc(=O)[nH]n12,-4%,2%
Cc1ccc(NC(=O)c2nnc(SCC(=O)NCCC(C)C)s2)cc1,129%[activator],-8%
COc1ccc2cc3c(N)nn(C(=O)c4ccc(F)cc4Cl)c3nc2c1,49%[activator],58%[activator]
Cc1cc2n(n1)CCC(=O)N2Cc1ccc(C(=O)Nc2ccc(F)cc2F)cc1,15%,6%
NC(=O)C(Sc1ncccc1Cl)c1ccccc1 (stereo not given),0%,43%[activator]
Cc1ccc(NS(=O)(=O)c2c(C)nc3scc(C)n3c2=O)cc1Cl,-1%,124%[activator]
C#CCN(C)[C@H](C)Cc1ccccc1,-23%,-17%
O=C(O)C1CCCCC1C(=O)NC1CCN(Cc2ccccc2)CC1 (stereo not given),-5%,-5%
Cc1ccccc1OCCCCn1nnc2sc3c(c2c1=O)CCC(C)C3 (stereo not given),2%,-2%
COc1ccccc1NC1(c2nnnn2-c2c(C)cccc2C)CCCC1,4%,79%[activator]
COc1cc(OC)c2c(C)c(CC(=O)Nc3nc4ccccc4[nH]3)c(=O)oc2c1,-4%,-12%
O=C(OCc1cc2ccccc2[nH]c1=O)c1ccco1,32%[activator],7%
CC(=O)c1c(C)nc2nc(-c3ccccc3)nn2c1C,283%[activator],30%[activator]
N#CC1=C(N)OC2=C(C(=O)CC(c3ccccc3)C2)C1c1ccccc1F (stereo not given),-5%,8%
Cc1cc(C)cc(NC(=O)Cc2csc(COc3cccc(C)c3)n2)c1,14%,2%
COc1ccc(C)c2sc(NC(=O)c3ccc(S(=O)(=O)N4CCOCC4)cc3)nc12,-15%,-11%
CCN(CC)Cc1ccccc1CNC(=O)c1c(C)[nH]c2ccccc12,-14%,-13%
COc1cc(C(=O)Nc2c(NCc3ccccc3)c3ccccc3oc2=O)ccc1OC(C)=O,-6%,-6%
O=C(N/N=C/c1ccc(-c2ccccc2)cc1)c1ccc(Br)s1,16%,-15%[1.06 µM]
O=C1COc2cc(S(=O)(=O)CCC(=O)N3CCN(c4cccc(Cl)c4)CC3)c(Cl)cc2N1,?,?
CCOC(=O)c1cc(-c2cc(OC)c(OC)c(OC)c2)nc2ccccc12,21%,24%
COc1ccccc1OCCn1c(NC(=O)c2ccco2)nc2ccccc21,7%,5%
COc1ccccc1C(=O)Nc1ccccc1OCc1cc(=O)n2ccccc2n1,-7%,4%
Cc1ccc(C(C)NC(=O)Cc2c[nH]c3ccccc23)o1 (stereo not given),-1%,0%
Cc1ccc(-n2nc(C(=O)N(C)c3ccccc3Cl)c3c4ccccc4n(C)c3c2=O)cc1,18%,-6%
COCCCNC(=O)c1sc(NCc2ccco2)nc1C,38%[activator],11%
CCn1cnc2c1c(=O)n(CC(=O)NCc1ccccc1Cl)c(=O)n2Cc1ccccc1,-2%,5%
CN(C)C(=O)C(Sc1nnc(-c2cc(Cl)ccc2Cl)n1N)c1ccccc1 (stereo not given),3%,15%
O=C(Nc1ccccc1C(=O)NCCc1ccco1)C1=CSCCO1,33%[activator],27%
O=S(=O)(Nc1nc2ccccc2nc1Nc1ccccc1Br)c1ccccc1,?,?
COc1cc(-c2noc(-c3ccc(NCc4ccccc4)c([N+](=O)[O-])c3)n2)cc(OC)c1OC,-12%,3%
Cc1cccc(-n2nnnc2C2(Nc3ccccc3)CCCC2)c1,7%,184%[activator]
COc1ccc(NC(=O)C2CC(=O)N(C(C)C)C2)cc1S(=O)(=O)N1CCCCC1 (stereo not given),-8%,-2%
O=C(NCC1OCCc2ccccc21)c1cccc(Br)c1 (stereo not given),51%[activator],15%
O=C(c1ccc(CS(=O)c2ccccc2Cl)o1)N1CCN(c2ccccc2F)CC1 (stereo not given),-7%,9%
Cc1ccc(SCc2ccccc2C#N)cc1,174%[activator],11%
COC(=O)c1cccc(COC(=O)c2ccc(CNC(C)=O)cc2)c1,71%[activator],-6%[1.06 µM]
Cc1cc(Sc2cc(C)c(O)c(C(C)(C)C)c2)cc(C(C)(C)C)c1O,-18%,-22%
Cc1occc1C(=O)N(Cc1cccs1)C1CC1,0%,-2%
O=C(Nc1ccc2nc[nH]c(=O)c2c1)c1cc(Br)ccc1Cl,47%[activator],17%
Cc1ccc(NC(C)c2nc3scc(-c4ccco4)c3c(=O)[nH]2)cc1C (stereo not given),9%,10%
COC(=O)c1c(NC(=O)c2ccc(S(=O)(=O)N3CCCCC3)cc2)sc2c1CCN(C)C2,-20%,-9%
COc1ccccc1CNC(=O)c1ccc2c(c1)nnn2C1CCCC1,0%,2%

A second format for part of the listing above:
Screens in order – StopGo FLuc	2A Renilla
- Cc1ccc(NC(C)c2nc3scc(-c4ccco4)c3c(=O)[nH]2)cc1C (stereo not given)
  9%	10%
- COC(=O)c1c(NC(=O)c2ccc(S(=O)(=O)N3CCCCC3)cc2)sc2c1CCN(C)C2
  -20%	-9%
- Cc1occc1C(=O)N(Cc1cccs1)C1CC1
  0%	-2%
- COc1ccccc1CNC(=O)c1ccc2c(c1)nnn2C1CCCC1
  0%	2%

(continued)
Molecule,StopGo FLuc,2A Renilla
COc1cccc(NC(=O)Cn2cc(C(=O)C3CCCCC3)c3ccccc32)c1,-15%,20%
CCc1ccc(/C=N/Nc2ccc(S(=O)(=O)Nc3ccc(C)cc3C)cc2[N+](=O)[O-])cc1,1%,7%
COc1ccccc1CNC(=O)CC(C)n1ccc(C)n1 (stereo not given),4%,-5%
Cc1cccc(NS(=O)(=O)c2ccc3[nH]c(=O)[nH]c3c2)c1C,-25%,3%
NC1CCOCC1,12%,-8%
O=C(Nc1ccccc1)C1=C(Nc2ccc(F)cc2F)c2ccccc2S1(=O)=O,-11%,34%[activator]
N#Cc1c(NC(=O)CSc2ncnc3ccccc23)sc2c1CCCC2,0%,-10%
CCN(CC)C(=O)COc1ccc(-c2noc(-c3ccccc3)n2)cc1OC,201%[activator],9%
CC(=O)Nc1ccc(-c2nc3cc(C(C)C)ccc3o2)cc1,9%,7%
O=C(O)c1ccc2n[nH]nc2c1,-6%,-7%[1.06 µM]
CC(C)(C)c1ccc(C(=O)N2CCN(Cc3cc(=O)n4nc(-c5ccccc5F)sc4n3)CC2)cc1,1%,12%
N#CC(Cc1ccc(Cl)cc1)(Cc1ccc(Cl)cc1)C(=O)NC1CCCCC1,-2%,18%

Compound activity as filed in PubChem BioAssay.
